Screening results as filed in PubChem.
Yeast UUG start – modulators of start codon recognition fidelity in yeast; activity score, % at 18.7 µM; S. cerevisiae UUG-firefly luciferase reporter, luminescence/redox ratio; 350,000 tested, 0.13% active;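 active = replicate mean at a twofold rise or more, about +100% in these data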;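 note: firefly luciferase made from a UUG start codon reports start codon fidelity; reporter light over untreated wells divided by growth signal over untreated wells; some hits fall short of that in this replicate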
Rce1 inh – inhibitors of yeast Ras-converting enzyme. 290,000 tested, 0.27% active. Q03530. yeast membranes, quenched prenylated peptide cleavage fluorescence. AID 2563. calls only;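 active = fall in fluorescence gain of 50% or more versus controls, with final raw signal at or below 3038400; inconclusive = same 50% fall but final raw signal above 3038400; inactive = fall in fluorescence gain under 50%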;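 note: plate controls were neutral control wells for no effect and wells lacking membranes for full effect; tested at 10 µM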
Env fusion inh – HIV envelope-mediated fusion inhibition | HeLa-JRFL Env/CEM21 cell fusion, luciferase | inhibition, % at 12.3 µM | 360,000 tested, 1.1% active | AID 651610;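 active = mean replicate inhibition score of at least 50 and every replicate individually at or above 50; inconclusive = only one of the two criteria met; inactive = mean below 50 and not all replicates reaching 50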;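 note: 0% = plate neutral controls and 100% = maraviroc near 300 nM; one replicate is shown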
CSC inhib – blocks cancer stem cells | cancer stem cell-like cells viability, luminescence | inhibition, % at 7.5 µM | 300,000 tested, 1.1% active | AID 2717;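 active = mean at 75% or more and at least half the replicates too; inconclusive = mean and replicates disagree; tested in HMLE shEcad cells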;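 note: 0% = median of negative and 100% = median of positive control wells; the first replicate is given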
PABP polyA inh – PABP-poly(A) binding inhibition. P11940. PABP-poly(A) RNA binding, fluorescence polarization. inhibition, % at 35 µM. 290,000 tested, 1% active. AID 2014;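 active = 50% or more with normal probe brightness, or confirmed in later tests; inconclusive = above 50% with abnormal brightness, or retests that disagree; inactive = below 50% or failed in later tests; about a fifth of its hits are not listed in these tables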;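 note: calls also rest on retests at 20 µM and on dose response follow-up; controls were probe without protein and protein plus probe with vehicle; some compounds called inactive have numbers as strong as hits; many hits fall short of the cut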
Target sequence (P11940 whole entry, looked up): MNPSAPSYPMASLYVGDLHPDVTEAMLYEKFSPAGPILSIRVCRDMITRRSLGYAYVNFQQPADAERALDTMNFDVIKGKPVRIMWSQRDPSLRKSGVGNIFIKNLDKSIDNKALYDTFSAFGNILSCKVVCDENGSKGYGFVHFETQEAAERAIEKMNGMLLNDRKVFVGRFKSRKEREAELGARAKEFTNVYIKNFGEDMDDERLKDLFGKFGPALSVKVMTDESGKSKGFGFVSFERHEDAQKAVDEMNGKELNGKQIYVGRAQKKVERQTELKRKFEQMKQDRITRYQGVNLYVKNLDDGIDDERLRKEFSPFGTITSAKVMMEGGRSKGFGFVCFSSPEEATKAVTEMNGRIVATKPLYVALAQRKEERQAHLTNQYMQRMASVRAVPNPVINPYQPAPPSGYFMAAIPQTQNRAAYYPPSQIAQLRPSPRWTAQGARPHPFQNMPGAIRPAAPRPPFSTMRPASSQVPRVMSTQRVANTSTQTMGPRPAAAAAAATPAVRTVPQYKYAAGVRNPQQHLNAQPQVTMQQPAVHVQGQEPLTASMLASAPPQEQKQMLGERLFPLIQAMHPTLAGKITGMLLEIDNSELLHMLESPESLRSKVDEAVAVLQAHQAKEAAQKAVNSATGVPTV
MT1-MMP act inh – inhibitors of human MT1-MMP activation. HT1080 RFP-PRO-GFP cells, GFP/RFP ratio fluorescence, overnight; percent of plate control window, DMSO zero. GFP/RFP ratio change, % at 20 µM. 360,000 tested, 0.061% active;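 active = GFP/RFP ratio change of at least 30% with cell ATP level not reduced by more than half and red fluorescence within 50% of control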; note: strong numbers were not always called active
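Assay system: HT1080 cells carrying an RFP-PRO-GFP reporter | Dosing: Single dose of 20 µM compound, 1% DMSO final | Incubation: Cells overnight before dosing, compound overnight, 37 °C, 5% CO2 | Evaluation: GFP/RFP fluorescence ratio | Control set: DMSO and RFP-L50D-GFP cell wells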
eIF4H FP inh – inhibitors of RNA binding by human eIF4H; inhibition, % at 35 µM; Q15056; eIF4H fluorescence polarization binding assay; 290,000 tested, 0.94% active;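 active = 50% or more with normal probe brightness, or confirmed in later tests; inconclusive = above 50% with abnormal brightness, or retests that disagree; inactive = below 50% or failed in later tests; about a fifth of its hits are not listed in these tables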;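 note: calls also rest on retests at 20 µM and on dose response follow-up; 0% = protein and probe with vehicle and 100% = probe without protein; strong numbers were not always called active; many hits fall short of the cut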
MT1-MMP act inh RFP – recorded beside MT1-MMP act inh, whose call it bears; RFP signal change, %; measured here: RFP expression control read;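 0 = vehicle wells; hits needed this value within 50% of zero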
* = called active by the depositor.

Screening CCC[C@H]1CC(=O)C=C(c2ccsc2)ON1C(=O)OC(C)(C)C returned Yeast UUG start -3, Env fusion inh 24, MT1-MMP act inh 2 and MT1-MMP act inh RFP -4.
CCCC(=O)Nc1nnc(/C=C/c2ccccc2)s1 was read as Yeast UUG start -11, Rce1 inh inactive, Env fusion inh -29, CSC inhib 4, PABP polyA inh 16, MT1-MMP act inh 0, eIF4H FP inh 2 and MT1-MMP act inh RFP 0.
Cc1cc2nc3ccc(=[N+](C)C)cc-3sc2cc1N was read as Rce1 inh inactive, PABP polyA inh inconclusive, MT1-MMP act inh 17, eIF4H FP inh inconclusive and MT1-MMP act inh RFP 0.
C/C(=N/NC(=O)c1ccc(-c2ccccc2)cc1)c1cc(O)cc(O)c1 was read as Yeast UUG start 2, Rce1 inh inactive, Env fusion inh -13, CSC inhib 96*, PABP polyA inh -1, MT1-MMP act inh 3, eIF4H FP inh -9 and MT1-MMP act inh RFP -1.
O=C(NCc1cccc(Cl)c1)c1cccc(S(=O)(=O)N2CCCCC2)c1 was read as Yeast UUG start -11, Env fusion inh 0, MT1-MMP act inh 3 and MT1-MMP act inh RFP 0.
Cc1ccc(N=C2N=C(N)c3ccccc32)c(C)c1 was read as Yeast UUG start 3, Rce1 inh inactive, CSC inhib -7, PABP polyA inh 20, MT1-MMP act inh -7, eIF4H FP inh 3 and MT1-MMP act inh RFP -1.
For CCN(NC(=O)C(O)(c1ccc(F)cc1)c1ccc(F)cc1)C(=O)c1ccccc1 the results were Rce1 inh inactive, Env fusion inh -40, CSC inhib -25, PABP polyA inh 2, MT1-MMP act inh 0, eIF4H FP inh 3 and MT1-MMP act inh RFP 6.
`CCOC(=O)N1CCN(C(=O)c2ccccc2N(Cc2ccccc2)S(=O)(=O)c2ccccc2)CC1` gave Yeast UUG start -10, Rce1 inh inactive, Env fusion inh 8, CSC inhib -2, PABP polyA inh 18, MT1-MMP act inh 0, eIF4H FP inh -1 and MT1-MMP act inh RFP -1.
`COc1nc(NS(=O)(=O)c2ccc(C)cc2)nc(C)c1Cl` gave Yeast UUG start 2, Rce1 inh inactive, CSC inhib -13, PABP polyA inh 6, MT1-MMP act inh -1, eIF4H FP inh -1 and MT1-MMP act inh RFP 7.
Screening O=C(Nc1ccccc1)N(C1=NCCC1)c1ccccc1 returned Rce1 inh inactive, Env fusion inh 9, CSC inhib -13, PABP polyA inh -1, MT1-MMP act inh 2, eIF4H FP inh -4 and MT1-MMP act inh RFP 0.
S=C(NCCc1ccccc1)Nc1ccccc1Cl was read as Yeast UUG start -2, Rce1 inh inactive, Env fusion inh -14, CSC inhib 5, PABP polyA inh -2, MT1-MMP act inh 4, eIF4H FP inh -16 and MT1-MMP act inh RFP 2.
Screening COc1ccc(S(=O)(=O)NC(C)C(=O)NCC2CCCO2)cc1OC (configuration not stated) returned Yeast UUG start -4, Rce1 inh inactive, Env fusion inh -6, CSC inhib 13, PABP polyA inh -3, MT1-MMP act inh 0, eIF4H FP inh -6 and MT1-MMP act inh RFP 3.
For CCCCN(C(=O)c1ccc(C)c(S(=O)(=O)N2CCOCC2)c1)c1c(N)n(CC(C)C)c(=O)[nH]c1=O the results were Yeast UUG start -4, Rce1 inh inactive, Env fusion inh 14, CSC inhib -13, MT1-MMP act inh -1 and MT1-MMP act inh RFP 3.
For O=C(CSc1ncn(-c2ccccc2)n1)Nc1nccs1 the results were Yeast UUG start -9, Rce1 inh inactive, Env fusion inh -27, CSC inhib -6, PABP polyA inh 49, MT1-MMP act inh 1, eIF4H FP inh -3 and MT1-MMP act inh RFP 0.
Screening O=C(OCc1ccccc1)N1CCC2CC1c1cc(NCCc3ccccc3)ccc12 (configuration not stated) returned Yeast UUG start -18, Env fusion inh 2, MT1-MMP act inh 2 and MT1-MMP act inh RFP -2.
COc1ccc(Cl)cc1NC(=O)CSc1nnc(Cn2c(=O)sc3ccccc32)n1C was read as Yeast UUG start -2, Env fusion inh 8, CSC inhib -17, PABP polyA inh 16, MT1-MMP act inh 2, eIF4H FP inh 2 and MT1-MMP act inh RFP 4.
For COC(=O)c1ccc(N2CCN(S(=O)(=O)c3ccc(Br)cc3)CC2)c([N+](=O)[O-])c1 the results were Yeast UUG start -10, Rce1 inh inactive, Env fusion inh 6, CSC inhib 23, PABP polyA inh -22, MT1-MMP act inh -4, eIF4H FP inh 1 and MT1-MMP act inh RFP -10.
For O=C(CN(C(=O)CCNC(=O)c1ccco1)c1ccccc1)NC1CCCC1 the results were Yeast UUG start 8, Rce1 inh inactive, Env fusion inh -46, CSC inhib -13, PABP polyA inh -8 and eIF4H FP inh -1.
Screening C(=C\c1ccccc1)/C=N/n1cnnc1 returned Yeast UUG start 6, Rce1 inh inactive, Env fusion inh 2, CSC inhib -9, PABP polyA inh -2, MT1-MMP act inh 5, eIF4H FP inh -2 and MT1-MMP act inh RFP 3.
`COC(=O)c1ccc(COc2ccc(-c3nnn(CC(N)=O)n3)cc2)cc1` gave Rce1 inh inactive, Env fusion inh 2, CSC inhib 8, PABP polyA inh 17, MT1-MMP act inh -2, eIF4H FP inh -5 and MT1-MMP act inh RFP 2.
`COC(=O)c1cc(Br)c(=O)n(Cc2ccc3c(c2)OCO3)c1` gave Yeast UUG start -17, Rce1 inh inactive, CSC inhib -10, PABP polyA inh -10, MT1-MMP act inh 3, eIF4H FP inh 3 and MT1-MMP act inh RFP 2.
`O=C(NCCO)c1ccc(CSc2nc3ccccc3[nH]2)cc1` gave Rce1 inh inactive, Env fusion inh -1, CSC inhib 5, PABP polyA inh -5, MT1-MMP act inh 9, eIF4H FP inh 3 and MT1-MMP act inh RFP 2.
`CCNC(=O)CC(=O)Nc1ccccc1C(=O)O` gave Yeast UUG start -13, Rce1 inh inactive, CSC inhib 3, PABP polyA inh 3, MT1-MMP act inh 0, eIF4H FP inh -14 and MT1-MMP act inh RFP 5.
Cc1cc(C)c(C#N)c(SCC(=O)Nc2ccccc2)n1 was read as Rce1 inh inactive, Env fusion inh -25, CSC inhib -6, PABP polyA inh -1, MT1-MMP act inh 1, eIF4H FP inh -1 and MT1-MMP act inh RFP 0.
`C/C(=N\Nc1nc(N)cc(Cl)n1)c1cccc(N)c1` gave Yeast UUG start -10, Rce1 inh inactive, Env fusion inh 14, CSC inhib -2, PABP polyA inh 2, MT1-MMP act inh 2, eIF4H FP inh 2 and MT1-MMP act inh RFP 3.
For Cc1ccc(C(=O)OCC(=O)N2CCOCC2)c(C)c1 the results were Rce1 inh inactive, Env fusion inh -11, CSC inhib 14, PABP polyA inh 10, MT1-MMP act inh -1, eIF4H FP inh -6 and MT1-MMP act inh RFP 0.
CCCn1c(SCC(=O)Nc2ccccc2Cl)n[nH]c1=O was read as Rce1 inh inactive, Env fusion inh -7, CSC inhib -5, PABP polyA inh 2, MT1-MMP act inh -3, eIF4H FP inh 2 and MT1-MMP act inh RFP 1.
For CCOC(=O)c1sc(NC(=O)COC(=O)C(CCSC)NC(C)=O)nc1C (configuration not stated) the results were Yeast UUG start -10, Rce1 inh inactive, Env fusion inh -16, CSC inhib -3, PABP polyA inh -2, MT1-MMP act inh 3, eIF4H FP inh 3 and MT1-MMP act inh RFP 3.
Cc1cccc(-c2nsc(SCC(=O)Nc3cc(C)on3)n2)c1 was read as Yeast UUG start -7, Rce1 inh inactive, Env fusion inh -81, CSC inhib 0, PABP polyA inh -7, MT1-MMP act inh -4, eIF4H FP inh -6 and MT1-MMP act inh RFP -3.
For COc1ccc(CNC(=O)C2CCC(=O)N2C(C)C)c(OC)c1 (configuration not stated) the results were Rce1 inh inactive, Env fusion inh 0, CSC inhib -4, PABP polyA inh 4, MT1-MMP act inh 5, eIF4H FP inh 4 and MT1-MMP act inh RFP 3.
`CCOc1ccccc1NC(=O)C1CCCN(S(=O)(=O)c2ccc(OC)c(C)c2)C1` (configuration not stated) gave Yeast UUG start 10, Rce1 inh inactive, CSC inhib 6, PABP polyA inh 8, MT1-MMP act inh -6, eIF4H FP inh 9 and MT1-MMP act inh RFP -9.
NS(=O)(=O)c1ccc(Nc2nc(-c3ccc(O)cc3)cs2)cc1 was read as Yeast UUG start -8, Rce1 inh inactive, Env fusion inh 0, CSC inhib 5, PABP polyA inh 0, MT1-MMP act inh -1, eIF4H FP inh 1 and MT1-MMP act inh RFP -8.
Screening CCOc1ccc(C)cc1S(=O)(=O)N1CCCCC1 returned Yeast UUG start -12, Rce1 inh inactive, Env fusion inh -21, CSC inhib -2, PABP polyA inh -12, MT1-MMP act inh -1, eIF4H FP inh -4 and MT1-MMP act inh RFP 4.
`C#CCn1c(=NC(=O)CN2C(=O)CCC2=O)sc2cccc(OC)c21` gave Rce1 inh inactive, Env fusion inh 9, CSC inhib -1, PABP polyA inh -6, MT1-MMP act inh 1, eIF4H FP inh -8 and MT1-MMP act inh RFP 1.
Screening CN1CCN(CCCOc2ccc(-c3ccccc3)cc2)CC1 returned Yeast UUG start -4, Rce1 inh inactive, Env fusion inh -13, CSC inhib 49, PABP polyA inh 0, MT1-MMP act inh 7, eIF4H FP inh -1 and MT1-MMP act inh RFP -2.
`Cc1cc(C)c2c(-n3cccc3)c(C(=O)NNS(=O)(=O)c3ccc(Br)cc3)sc2n1` gave Yeast UUG start 20, Rce1 inh inactive, Env fusion inh -51, CSC inhib 7, PABP polyA inh -6, MT1-MMP act inh -1, eIF4H FP inh -5 and MT1-MMP act inh RFP 0.
Screening CCOC(=O)C1C(=O)NC(SCC(=O)Nc2nccs2)=C(C#N)C1c1ccccc1OCC (configuration not stated) returned Yeast UUG start -26, CSC inhib 3, PABP polyA inh 2, MT1-MMP act inh -12, eIF4H FP inh -1 and MT1-MMP act inh RFP 3.
Screening CC1=CC(C)(C)n2c(O)c(N=NC(N)=S)c3c(C)ccc1c32 returned Yeast UUG start -23, Rce1 inh inactive, Env fusion inh -152, PABP polyA inh -4, MT1-MMP act inh 7, eIF4H FP inh 12 and MT1-MMP act inh RFP 2.
Screening C=CCNc1nc(Cl)nc(Nc2ccc(OC)cc2OC)n1 returned Yeast UUG start 2, Rce1 inh inactive, Env fusion inh 0, CSC inhib -21, PABP polyA inh -3, MT1-MMP act inh 1, eIF4H FP inh -2 and MT1-MMP act inh RFP -5.
For Cc1ccc(Sc2ccc(N)cc2C#N)cc1 the results were Yeast UUG start -4, CSC inhib -2, MT1-MMP act inh -2 and MT1-MMP act inh RFP 0.
Screening O=C(NCc1ccc(F)cc1)c1cc(C2CCCCN2C(=O)CCc2ccccc2)on1 (configuration not stated) returned Yeast UUG start -2, Env fusion inh -18, MT1-MMP act inh -2 and MT1-MMP act inh RFP -6.
COc1ccccc1OCc1cc(-c2ccccc2)no1 was read as Rce1 inh inactive, Env fusion inh -47, CSC inhib 0, PABP polyA inh -8, MT1-MMP act inh -1, eIF4H FP inh -3 and MT1-MMP act inh RFP 0.
`O=C(NNC(=O)C12CC3CC(CC(C3)C1)C2)c1cccc(O)c1` gave Yeast UUG start -8, Rce1 inh inactive, Env fusion inh -43, CSC inhib -11, PABP polyA inh 1, MT1-MMP act inh -3, eIF4H FP inh 1 and MT1-MMP act inh RFP -2.
For CCc1ccc(OCCNC(=O)c2cc(SC)ccc2Cl)cc1 the results were Yeast UUG start -17, Rce1 inh inactive, Env fusion inh -34, CSC inhib -7, PABP polyA inh 6, MT1-MMP act inh 2, eIF4H FP inh -7 and MT1-MMP act inh RFP 4.
Screening CCc1ccc(-n2c(C)cc(/C=N/NC(=O)c3ccncc3)c2C)cc1 returned Env fusion inh 16, CSC inhib 0, PABP polyA inh -3, MT1-MMP act inh -4, eIF4H FP inh -8 and MT1-MMP act inh RFP -10.
